TRPML1 inh – blocks the human TRPML1 channel | TRPML1-inducible cells, Ca2+ dye fluorescence, FDSS; hits give low values; inhibition of EC80 agonist-evoked calcium signal | activity change, negative = inhibition, % (test concentration not listed) | Q9GZU1 | hit rate 0.02% among 390,000; in the data active means activity change below about -50%; inconclusive means about -30% to -50%; inactive means above about -30%;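 note: stimulus is agonist 54-4 at its EC80 concentration; % is set by controls: 0 for no effect and ±100 for the full control effect; compound concentration not given in the record; the text of the record puts the active cut at -80%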
Target sequence (Q9GZU1 whole entry, looked up): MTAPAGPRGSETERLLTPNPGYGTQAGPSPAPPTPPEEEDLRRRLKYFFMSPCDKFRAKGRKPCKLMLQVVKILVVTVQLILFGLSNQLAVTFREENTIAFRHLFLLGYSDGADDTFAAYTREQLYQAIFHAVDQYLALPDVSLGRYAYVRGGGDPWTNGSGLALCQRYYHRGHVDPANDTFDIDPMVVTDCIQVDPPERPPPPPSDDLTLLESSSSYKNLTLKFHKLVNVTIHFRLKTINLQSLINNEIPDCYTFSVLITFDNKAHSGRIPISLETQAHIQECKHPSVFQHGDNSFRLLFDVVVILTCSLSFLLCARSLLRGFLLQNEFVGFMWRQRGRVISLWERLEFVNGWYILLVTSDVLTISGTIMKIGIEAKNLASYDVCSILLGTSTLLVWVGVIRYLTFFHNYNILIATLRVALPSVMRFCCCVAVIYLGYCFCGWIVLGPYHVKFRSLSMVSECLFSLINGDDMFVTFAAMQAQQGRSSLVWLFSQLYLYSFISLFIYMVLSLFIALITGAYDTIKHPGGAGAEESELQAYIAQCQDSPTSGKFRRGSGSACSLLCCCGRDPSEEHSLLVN
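TRPML1-DL cells, Tet-induced overnight (~16 h, 37 °C) at 1,500 cells/well, were loaded with Ca8 no-wash dye plus quencher for 45-90 min at room temperature. Compounds were pinned during FDSS kinetic reading; agonist 54-4 at EC80 (4 uM final) then added.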
TRPML1 ag – activates the human TRPML1 channel; Q9GZU1; TRPML1-expressing cells, Ca2+ dye fluorescence, FDSS; host cell line not named in the record; reference of the full effect not given here; activation, % (concentration not given with the values); hit rate 0.12% among 410,000; in the data active = activation above about 50%; inconclusive = about 30% to 50%; inactive = below about 30%; note: 0% is about no effect; the text of the record puts the active cut at 80%
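Tetracycline-induced TRPML1-DL cells are seeded and incubated overnight before loading with a no-wash Ca2+ dye and quencher. Agonist activity is taken from the 110 s fluorescence read following compound pin-transfer on an FDSS, before EC80 54-4 challenge.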
* = called active by the depositor; ? = inconclusive.

smiles	TRPML1 inh	TRPML1 ag
COc1cccc(N=C2SC(C(=O)Nc3cccc(Cl)c3)CC(=O)N2C)c1 (stereo not given)	2.6	2.5
COc1ccc(OC)c(CCNC(=O)c2c(C)oc3ncn(C)c(=O)c23)c1	-17.9	-1.2
Cc1cccc(S(=O)Cc2ccc(C(=O)NC3CCCCCC3)o2)c1 (stereo not given)	6.3	-1.0
Cc1ccc2sc(N3CCN(C(=O)C4COc5ccccc5O4)CC3)nc2c1C (stereo not given)	-0.1	-0.3
CCOc1ccc(N(CC)S(=O)(=O)N2CCCC(C(=O)Nc3cc(Cl)ccc3OC)C2)cc1 (stereo not given)	4.7	-0.1
Cc1cc(SCC(=O)NCc2ccc(Cl)cc2)nc(=O)[nH]1	-3.7	0.2
COc1ccc(-c2noc(-c3ccc(NCc4ccc(C)cc4)c([N+](=O)[O-])c3)n2)cc1OC	20.4	-0.6
COc1cccc(C2CC(=O)Nc3cc4c(cc32)OCO4)c1OC(C)C (stereo not given)	-26.3	-0.6
CCOc1ccc(NCc2cccn2-c2nnc(N3CCC(C(=O)NCc4cccc(OC)c4)CC3)s2)cc1	-11.3	0.4
Cc1ccc(-c2nnc(Nc3ccc(O)cc3)c3ccccc23)cc1S(=O)(=O)NCc1nc2ccccc2[nH]1	-10.2	-0.9
COc1ccc(Cl)cc1NC(=O)CCCS(=O)(=O)c1nc(-c2ccc(OC)c(OC)c2)cc(C(F)(F)F)n1	10.4	0.5
COc1ccc(Cl)cc1NC(=O)Cn1nnc2sc3c(c2c1=O)CCC(C(C)(C)C)C3 (stereo not given)	10.8	1.4
Cc1ccc2nc(N3CCN(c4cccc(Cl)c4)CC3)c3nnnn3c2c1	-9.3	1.8
O=S(=O)(c1ccc(OC(F)(F)F)cc1)N1CCC(c2nc3ccccc3s2)CC1	24.1	2.1
COCCNC(=O)CCC(=O)N1Cc2cccc(OC)c2Oc2ncccc21	-28.6	4.3
CCOC(=O)c1c(S(=O)(=O)N2CCCC(C(=O)Nc3cc(C)ccc3OC)C2)c(C)n(C)c1C (stereo not given)	-7.6	-0.4
O=C1c2oc3ccccc3c(=O)c2C(c2cccc(Cl)c2)N1c1ccccn1 (stereo not given)	-13.0	1.0
Cc1c(C(=O)NCc2ccccc2)oc2c1-c1[nH]ncc1CC2	-8.2	2.7
Cc1ccc(Nc2nnc(-c3cc4c(ccc5ccccc54)oc3=O)s2)cc1	70.1	14.5
Cc1ccc(CN2CCCn3nc(C(=O)NCCC(C)C)cc3C2=O)cc1	-8.8	-0.4
Cc1c(Cl)cccc1NC(=O)c1cnc2sc(N3CCOCC3)nn2c1=O	-10.2	0.1
Cc1cccc(Cn2cnc3c(cnn3-c3ccc(Cl)cc3)c2=O)c1	17.7	1.1
COc1ccc(NC(=O)CSc2nc3c(c(=O)[nH]2)CCC3)cc1	12.2	4.4
Cc1cc(NS(=O)(=O)c2ccc(NC(=O)COc3c(C)ccc(C)c3C)cc2)nc(C)n1	-2.1	-1.2
COc1ccc(OC)c(NC(=O)c2nnn(CC(=O)Nc3ccc(C(C)C)cc3)c2N)c1	2.2	0.2
CCC(=O)N1CCc2cc(CNC(=O)c3ccc(C#N)cc3)ccc21	0.9	0.8
COc1ccc(-c2nc(CCNC(=O)c3ccccc3)cs2)cc1OC	-21.2	2.3
CCOc1ccc(-n2c(Cc3ccccc3)nnc2SCc2nc(-c3ccccc3C)no2)cc1	18.1	9.6
COc1cc(NC(=O)Cn2c(-c3ccccc3)cc(C(C)=O)c2C)cc(OC)c1	21.6	0.7
Cc1ccc(C)c(CN2C(=O)c3ccccc3S(=O)(=O)c3ccc(C(=O)N4CCCCC4)cc32)c1	18.1	-0.5

One compound at a time, as listed above. Order of screens: TRPML1 inh	TRPML1 ag
Cc1ccc(CN2CCCn3nc(C(=O)NCCC(C)C)cc3C2=O)cc1 across the screens: -8.8	-0.4
COCCNC(=O)CCC(=O)N1Cc2cccc(OC)c2Oc2ncccc21 across the screens: -28.6	4.3
CCC(=O)N1CCc2cc(CNC(=O)c3ccc(C#N)cc3)ccc21 across the screens: 0.9	0.8
COc1ccc(Cl)cc1NC(=O)Cn1nnc2sc3c(c2c1=O)CCC(C(C)(C)C)C3 (stereo not given) across the screens: 10.8	1.4
O=C1c2oc3ccccc3c(=O)c2C(c2cccc(Cl)c2)N1c1ccccn1 (stereo not given) across the screens: -13.0	1.0

Remaining list, next part:
smiles	TRPML1 inh	TRPML1 ag
Cc1ccccc1CNC(=O)Nc1ccc2c(c1)N(C)C(=O)c1ccccc1S2	?	1.3
Cc1ccc(C)c(CN2CCCN(CC(=O)Nc3ccc(C)c(C)c3)S2(=O)=O)c1	18.4	2.7
N#Cc1ccc(C(=O)Nc2ccc(Cl)c(-c3nc4cc(Cl)ccc4o3)c2)c(F)c1	25.9	1.4
CC1=C(C(=O)Nc2ccc(F)cc2)C(c2ccc(N(C)C)cc2)NC(=O)N1 (stereo not given)	12.7	-1.0
C=Cc1ccc(CSc2nnc(C)n3c2cc2occc23)cc1	14.8	0.7
CCc1cccc(NC(=O)Cn2c(C(=O)OC)cc3occc32)c1	7.7	0.3
CCOC(=O)c1cc(-c2ccccc2)n(-c2cccc(C(=O)Nc3ccc(OCC)cc3)c2)c1C	20.7	1.7
O=c1c2cc3c(cc2n(Cc2ccccc2)c(=O)n1Cc1nc(-c2ccccc2)no1)OCO3	3.4	0.7
COc1cc(OC)cc(C(=O)Nc2c(C(=O)Nc3ccc(F)cc3)oc3ccccc23)c1	-0.3	-0.9
Cc1ccc(NC(=O)C(=O)NCC(c2cccnc2)N2CCc3ccccc32)cc1Cl (stereo not given)	39.5	-0.3
CCOc1ccc(/C=C/c2nc(C#N)c(NCc3ccc(OC)cc3)o2)cc1	-13.8	-0.8
COc1ccc(CCNC(=O)c2cc3c(=O)[nH]c4ccc(C)cc4c3s2)cc1OC	-0.4	-1.1
Cc1c(C(=O)N(Cc2cccc(Cl)c2)Cc2ccco2)oc2ccccc12	16.4	2.8
CCOC(=O)C1CCCN(CC(=O)Nc2cc(C)c3c(=O)oc4ccccc4c3n2)C1 (stereo not given)	-13.8	-1.2
CCOc1ccc(CN2CCN(c3ncnc4sc5c(c34)CC(C)CC5)CC2)cc1 (stereo not given)	-4.9	-0.6
COC(=O)C1=C[C@@H](C(=O)OC)C2C3=C(C(=O)[C@]2(C)NC(=O)c2ccccc2)[C@H](C)[C@@H]2C(=O)N(C)C(=O)[C@@H]2[C@@H]3C1 (stereo not given in full)	18.5	0.4
Cc1ccc2nc(-c3ccsc3)c(Nc3ccccc3C)n2c1	5.3	-0.1
CCc1ccc(NC(=O)c2ccc3nc(C(C)C)oc3c2)cc1	20.3	3.1
CCOc1ccccc1NC(=O)CSc1nnc(N)s1	0.1	-0.9
Cc1ccn2c(Nc3ccc4c(c3)OCCO4)c(-c3ccc(C)s3)nc2c1	12.8	2.9
CCc1ccc(-n2c(=O)c3sc4ccccc4c3n(CC(=O)N(CC)Cc3ccccc3)c2=O)cc1	2.0	-0.6
Cc1ccc(NC(=O)CN2C(=O)c3ccccc3Sc3ccc(C(=O)N4CCOCC4)cc32)cc1C	-2.3	0.5
COc1cc(-c2noc(CN3CCN(c4ccccc4)CC3)n2)cc(OC)c1OC	8.9	-0.7
CN1C(=O)c2ccccc2Sc2ccc(NC(=O)c3ccccc3F)cc21	24.3	1.7
CCN(C(=O)C(NS(=O)(=O)c1cccc2nsnc12)c1ccccc1)c1ccccc1 (stereo not given)	7.2	2.8
Cc1c(CC(=O)NCc2ccc(F)cc2)c(=O)oc2cc(O)c(Cl)cc12	23.0	0.9
Cc1cccc(N2CCN(C(=O)Cc3c(C(=O)O)c(C)cn3C)CC2)c1C	6.6	-0.2
CC(=O)c1ccc(NC(=O)c2nc3ccccc3n(C)c2=O)cc1	10.0	-0.5
CCOc1ccc(CCNC(=O)CCCc2nnc3n(CCCOC)c(=O)c4sccc4n23)cc1	-4.1	-0.6
CCCOc1ccc(OC(=O)c2sc3ncn(Cc4cccc(F)c4)c(=O)c3c2C)cc1	8.4	-0.7

Continuation.
SMILES	TRPML1 inh	TRPML1 ag
Cc1ccccc1NC(=O)CSc1nc2ccccc2c2nc(CCn3c(C)nc4ccccc43)nn12	6.9	0.3
CCC1=Nc2cc(C(=O)NCc3ccc(C)cc3)ccc2Sc2ccc(C)cc21	-4.4	3.4
CCC(C(=O)Nc1cc(OC)ccc1OC)n1nc(-c2ccccc2)c2c(c1=O)CCCC2 (stereo not given)	22.2	1.3
CCOc1ccc(CCNC(=O)c2ccc3[nH]c(C)c(C)c3c2)cc1	1.8	2.3
Cc1ccc(CCNC(=O)c2sc3nc4n(c(=O)c3c2C)CCCC4)cc1	-5.6	0.3
CCOCCCn1c(SCC(=O)Nc2ccc(OC)cc2OC)nc2ccccc2c1=O	53.5	3.1
O=[N+]([O-])c1ccc(O/N=[N+](\[O-])N2CCN(c3ncccn3)CC2)c([N+](=O)[O-])c1	11.5	1.4
COc1cc(-c2noc(-c3cc(C)[nH]n3)n2)cc(OC)c1OC	-20.0	-0.7
Cc1ccccc1-n1nc(CO)c(C(=O)NCCc2ccccc2)n1	30.2	2.4
Cc1ccc2c(c1)N(C(=O)N1CCC(C(=O)NCc3ccco3)CC1)CC(C)O2 (stereo not given)	-9.4	-0.4
CCOc1ccc(-n2nc(CO)c(C(=O)NCC(c3ccccc3)c3ccccc3)n2)cc1	-3.3	2.6
COc1ccc(OC)c(NC(=O)Cn2cc(C(=O)c3cccs3)c3ccccc32)c1	17.7	0.2
CC(CNC(=O)c1csc2c1CCCCC2)c1ccccc1 (stereo not given)	35.8	0.9
CCOc1ccc(N(CC(=O)Nc2ccc3c(c2)OCO3)S(=O)(=O)c2ccccc2)cc1	4.2	1.0
O=C(Cn1ncc2c3ccccc3n(Cc3ccccc3F)c2c1=O)N1CCCCCC1	-10.7	-0.8
CCSc1oc(-c2cccs2)nc1S(=O)(=O)c1ccc(Br)cc1	-17.9	0.1
CCC(C(=O)Nc1ccc(F)cc1F)n1nc(-c2ccccc2)c2c(c1=O)CCCC2 (stereo not given)	12.3	1.5
CC(=O)c1cccc(NC(=O)c2cc3c(s2)-c2c(C)cccc2OC3)c1	30.3	1.3
CCOc1ccccc1NC(=O)N(Cc1ccc(F)cc1)C1CCN(CC)CC1	-1.5	0.5
CCOc1ccc(NC(=O)CSc2oc(-c3ccco3)nc2S(=O)(=O)c2ccc(C)cc2)cc1	-12.6	-0.4
COc1cc(C)cc2oc(=O)c(CC(=O)NCCc3ccc(Cl)cc3)c(C)c12	-15.7	-1.1
CCOc1cc(CNC(=O)NC2COc3ccccc3C2)cc(OCC)c1OCC (stereo not given)	-13.0	1.5
CCOc1ccc(NC(=O)CC2C(=O)N(c3cccc(OC)c3)C(=O)N2C2CCCCC2)cc1 (stereo not given)	6.8	-0.5
Cc1cccc(NC(=O)C2CCCN(c3nnc(-n4c(C)ccc4C)s3)C2)c1C (stereo not given)	8.8	-0.1
Cc1c(CNCCc2ccc(S(N)(=O)=O)cc2)c(C(=O)O)c(C)n1Cc1ccc(Cl)cc1	14.6	0.7
COc1ccc(-c2cc3nc(N)cc(=O)n3[nH]2)cc1	-19.2	-0.9
CCC(=O)N1CCc2cc(S(=O)(=O)N(C)c3cccc(C)c3)ccc21	-12.8	-0.3
O=C(O)CCn1ccc2cc(S(=O)(=O)N3CCCCC3)ccc21	-1.7	1.7
COc1ccc(-n2c(=O)c3c(C)c(C)sc3n(CC(=O)NCc3ccc(C)cc3)c2=O)c(OC)c1	-10.2	2.2
Cn1nc(-c2ccccc2F)c2cc(C(=O)N3CCN(c4ccccc4F)CC3)sc21	0.6	-0.1
CCOC(=O)c1[nH]c(C)c(C(=O)NCCc2ccccc2)c1C	2.1	2.0
COc1ccc(CN(CCC(c2ccc3c(c2)OCO3)c2ccccc2OC)C(C)=O)cc1 (stereo not given)	68.5	4.4
CCS(=O)(=O)NCC(c1ccco1)N1CCN(c2ccc(OC)cc2)CC1 (stereo not given)	-11.6	1.6
CCOc1ccc(-c2nnc(SCC(=O)Nc3cccc(OC)c3)nc2-c2ccc(OCC)cc2)cc1	-20.2	2.7
COCCNc1oc(-c2ccc(COc3ccc(OC)cc3)o2)nc1C#N	?	-0.4
COCCn1c(CNC(=O)c2ccc(C)cc2)nc2cccnc21	-8.4	-0.3
COCCCNC(=O)c1ccc(NC(=O)N2CCCCc3ccccc32)cc1	-21.1	-0.1
COc1cccc(-n2c(SCC(=O)Nc3ccc(F)cc3F)nc3c([nH]c4ccccc43)c2=O)c1	34.7	2.1

Ordered by value in TRPML1 inh (falling): some entries from above
SMILES	TRPML1 inh
CCOC(=O)c1[nH]c(C)c(C(=O)NCCc2ccccc2)c1C	2.1
COCCn1c(CNC(=O)c2ccc(C)cc2)nc2cccnc21	-8.4
CCOc1ccc(-c2nnc(SCC(=O)Nc3cccc(OC)c3)nc2-c2ccc(OCC)cc2)cc1	-20.2

A portion of the library (hit frequency here may not be typical).
